# High-throughput results from PubChem BioAssay.
# AmpC inh no det = blocks E. coli AmpC beta-lactamase in absence of detergent; P00811; AmpC nitrocefin hydrolysis, absorbance 480 nm, no detergent; potencies from a single point are estimates; Potency, µM (titrated, usually from 28.7 µM), for the others: at the highest dose activity change, negative = inhibition; 1.8% of 71,000 active; AID 585; active = falling curve, for most hits resting on a single point; inconclusive = weak or doubtful change; inactive = flat or rising curve; note: % of control where 0% means no effect; about half of the hits show no inhibition at the top dose; a quarter of the inactives give rising signals
# Target sequence (P00811 whole entry, looked up): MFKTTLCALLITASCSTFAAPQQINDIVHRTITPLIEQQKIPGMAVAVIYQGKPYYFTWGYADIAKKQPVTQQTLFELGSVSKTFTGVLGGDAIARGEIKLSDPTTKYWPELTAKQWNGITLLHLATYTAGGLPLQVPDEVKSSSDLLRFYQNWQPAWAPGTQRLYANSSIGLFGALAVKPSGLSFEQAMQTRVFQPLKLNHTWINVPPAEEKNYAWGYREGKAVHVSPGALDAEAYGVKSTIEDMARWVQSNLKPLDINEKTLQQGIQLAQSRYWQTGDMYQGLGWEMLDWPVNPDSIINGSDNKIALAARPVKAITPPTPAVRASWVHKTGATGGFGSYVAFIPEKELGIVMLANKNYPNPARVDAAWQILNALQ
#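 AmpC in 20 mM phosphate buffer pH 7.0 was preincubated 15 min at room temperature with compounds. Nitrocefin (800 uM stock) was then added and hydrolysis followed at 480 nm every 20 s for 4 min.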
# * = called active by the depositor; ? = inconclusive; & = joins results of further samples; [ ] = remark or other dose. Potency is the fitted concentration of half-maximal effect.
SMILES	AmpC inh no det
CCOc1ccc(N2C(=O)c3cccnc3C2Nc2ccc(F)cc2)cc1 (stereo not drawn)	33%
COc1cc(NC(=O)c2cc3c(C)nc4ccccc4c3o2)cc(OC)c1OC	138%
CCOCC(=O)N1CCc2ccccc21	9%
COC(=O)c1c(NC(=O)CCc2ccc(C)o2)sc(C)c1C	-3%
CCCN(CCC)CCNC(=O)CS(=O)Cc1nc(-c2ccc(C)cc2)oc1C (stereo not drawn)	25%
CN(C)Cc1ccc(O)c(CCc2ccccc2)n1	-17%
COc1ccc(C(c2nnnn2Cc2ccccc2)N2CCN(C(=O)c3ccco3)CC2)cc1 (stereo not drawn)	93%
c1ccc(OCc2nn3c(Cn4cnc5ccccc54)nnc3s2)cc1	25%
CCOC(=O)N1CCC(NC(=O)Cn2ncc3c4ccccc4n(C)c3c2=O)CC1	69%
CCC1CCCCN1C(=O)Cn1c(=O)oc2ccccc21 (stereo not drawn)	-2%
Cc1cc(C)n2nc(CCc3nc4nc(C)cc(C)n4n3)nc2n1	-11%
O=C(COC(=O)c1ccco1)Nc1ccc2c(c1)OCO2	-12%
CCN(CC)CCCNC1CCS(=O)(=O)C1 (stereo not drawn)	-11%
CCCCOc1cccc(C(=O)N(Cc2cccs2)C2CCS(=O)(=O)C2)c1 (stereo not drawn)	91%
CCn1c(CNc2ccc(F)cc2)nnc1SCC(=O)OC1CCCCC1	46%
COC(=O)C(CCSC)NC(=O)Cn1ncc2c(=O)oc3ccc(C)cc3c21 (stereo not drawn)	-3%
COC(=O)N1[C@H](Cc2ccccc2)C=C[C@]1(C)C(=O)NCc1ccccn1	30%
O=C(O)CN1C(=O)CN=C(c2ccccn2)c2cc(Cl)ccc21	-5%[5.75 µM]
Cc1ccccc1NS(=O)(=O)c1ccc(NC(=O)c2ccco2)cc1	-15%
CCCOc1ccc(C2C(C(=O)c3ccco3)=C(O)C(=O)N2CCCn2ccnc2)cc1 (stereo not drawn)	-18%

# Random excerpt: 6 entries already listed.
SMILES	AmpC inh no det
COC(=O)C(CCSC)NC(=O)Cn1ncc2c(=O)oc3ccc(C)cc3c21 (stereo not drawn)	-3%
CN(C)Cc1ccc(O)c(CCc2ccccc2)n1	-17%
CCC1CCCCN1C(=O)Cn1c(=O)oc2ccccc21 (stereo not drawn)	-2%
COc1cc(NC(=O)c2cc3c(C)nc4ccccc4c3o2)cc(OC)c1OC	138%
COc1ccc(C(c2nnnn2Cc2ccccc2)N2CCN(C(=O)c3ccco3)CC2)cc1 (stereo not drawn)	93%
O=C(COC(=O)c1ccco1)Nc1ccc2c(c1)OCO2	-12%

# Continuation.
SMILES	AmpC inh no det
COC(=O)Nc1ccc(S(=O)(=O)N(C)C)cc1	-1%
COc1ccc(Cl)cc1NC(=O)CC(C)=O	27%
CC(C)CN1CC[C@@]2(CCCN(S(=O)(=O)c3ccccc3)C2)C1	34%
CCCN(CCC)CCCNC(=O)c1cn(CCOC)c(=O)c2c1c1ccccc1n2C	40%
Cc1cc(C)cc(N(CC(=O)Nc2cccc(C)n2)S(=O)(=O)c2c(C)noc2C)c1	38%
COCCN(C(C)=O)c1nnc(-c2cnccn2)s1	5%
O=C1CC(N2CCSCC2)C(=O)N1CCc1ccccc1 (stereo not drawn)	17%
C1CCN2C[C@@H]3C[C@@H](CN4CCCC[C@H]34)[C@H]2C1	-8%
Cc1nnc(NC(=O)C2COc3ccccc3O2)s1 (stereo not drawn)	-6%
CCS(=O)(=O)N1CCCC(C(=O)NCc2ccc(C)cc2)C1 (stereo not drawn)	4%
O=C(CCC1COc2ccccc2O1)Nc1cccnc1 (stereo not drawn)	24%
C=C(C)CSc1nc(N)c2c(C)c(C)sc2n1	-12%
CCCCCNC(=O)CCCCn1c(=O)[nH]c2cc(OCC)c(OCC)cc2c1=O	22%
CN1CCN(CCCNC(=O)c2cn(C)c3ccc(S(=O)(=O)N(C)C)cc3c2=O)CC1	39%
Cc1ccccc1-c1nccc(Nc2ccc(F)cc2)n1	8%
CC1(C)CC(=O)C=C(Nc2ccc3c(c2)OCCO3)C1	0%
CC(C(=O)O)c1ccc(-c2ccccc2)c(F)c1 (stereo not drawn)	-11%
N[C@H](C(=O)O)[C@H](OCc1ccccc1)C(=O)O	11%
O=S(=O)(NCCc1csc(-c2cccnc2)n1)c1cccs1	133%
COC(=O)[C@@]1(Cc2ccc(OC)cc2)[C@H]2c3cc(C(=O)N4CCCC4)n(CCc4c[nH]c5ccccc45)c3C[C@H]2CN1C(=O)c1ccccc1	113%
Cc1nc2ncnn2c(C)c1CCC(=O)N1CCN(C(=O)c2ccco2)CC1	4%
C[C@]1(c2ccccc2)O[C@@H]2C[C@@H]3[C@@H]4CCC5=CC(=O)C=C[C@@]5(C)[C@]4(F)[C@H](O)C[C@]3(C)[C@@]2(C(=O)CO)O1	52%[5.75 µM]
O=C(CCCOc1ccccc1)Nc1ccc(S(=O)(=O)N2CCOCC2)cc1	44%
CCN(CC)c1ccc2cc(-c3nc4ccccc4[nH]3)c(=O)oc2c1	0%
COc1cc(NC(=O)CN2C(=O)NC(C)(CCC(C)C)C2=O)cc(OC)c1 (stereo not drawn)	29%
CC(=NCc1ccco1)c1c(O)n(Cc2ccccc2)c(=O)[nH]c1=O	-2%
CNc1ccnc(-c2ccccc2C)n1	5%
O=C1CC(N2CCN(Cc3ccccc3)CC2)C(=O)N1c1ccccc1 (stereo not drawn)	-8%
Cc1ccc(-c2csc3ncn(-n4c(C)ccc4C)c(=O)c23)o1	12%
COc1cccc(-c2cc(C(=O)Nc3cc(C)n(Cc4ccc(Cl)cc4)n3)no2)c1	?
Cc1sc2c(=O)n3c(nc2c1C(=O)NCCCN1CCOCC1)CCCCC3	32%
CCCCn1c(SCC(=O)Nc2cccc(C)n2)nnc1-c1ccco1	40%
CCn1c(SC)nnc1-c1nnc(SC)n1CC	1%
Cc1cccc2cc(C#N)c(N3CCCC3)nc12	-2%
O=C(Cc1cccs1)Nc1ccc(-c2nnn(CC(=O)N3CCOCC3)n2)cc1	-14%
CSc1ccc(C(=S)N2CCN(C)CC2)cc1	11%
Cc1ncc(CC(=O)n2cc(C(=O)c3cc(Cl)ccc3O)cn2)s1	-8%
COc1cccc(-n2c(Cc3cc(=O)[nH]c(=O)[nH]3)nnc2SCC(=O)N2CCC(C)CC2)c1	8%
Cc1nn(-c2ccccc2)c(C)c1P(=O)(c1ccccc1)N(C)C (stereo not drawn)	38%
Cc1ccc(CN(C(=O)c2c(F)cccc2F)C2CC(C)(C)NC(C)(C)C2)o1	29%
COc1ccc(Cl)cc1Nc1cc(C)nc2nc(C)nn12	-2%
COc1ccc(CNc2ncnc3ccc(-c4ccc(N(C)C)cc4)cc23)c(OC)c1	38%
COc1ccc(S(=O)(=O)NCc2ccccc2Cl)cc1OC	3%
CC(=O)Nc1ccc(C(=O)CCl)cc1	-9%
CCCCn1nnnc1SCC(=O)Nc1ccc2c(c1)OCO2	-3%
COc1cccc(OC)c1C(=O)Nc1ccccc1C(=O)N1CCOCC1	60%
CN(C)CCCOC(=O)c1ccc(Cl)cc1	10%
CC(OC(=O)C(NC(=O)c1ccco1)C(C)C)C(=O)Nc1ncc(Cl)cc1Cl (stereo not drawn)	20%
OCC(Cl)CCl (stereo not drawn)	6%
Cc1cccc(N(C)C(=O)COc2cc(=O)n(C)c3ccccc23)c1	74%

# Additional compounds follow:
structure,AmpC inh no det
Nc1cc(C(=O)OCC(=O)NCC2CCCO2)ccc1Cl (stereo not drawn),-8%
FC(F)(F)c1cnc(Oc2ccc(-c3nnco3)cc2)c(Cl)c1,54%
O=C(Cn1nnc(-c2ccccc2)n1)Nc1ccccc1N1CCOCC1,33%
CC(C)c1nc2ccccc2c2nnc(SCC(=O)NCc3ccco3)n12,40%
Clc1ccc(Cn2ncc3c(N4CCCCC4)ncnc32)c(Cl)c1,15%
CCOc1ccc(-c2nnc3sc(COc4ccc(C)cc4)nn23)cc1,26%
N[C@H](C(=O)O)c1cccc(O)c1,2%&3%
CCC(Cl)CC(Cl)C(Cl)C(Cl)C(Cl)C(C)Cl (stereo not drawn),-18%
COc1ccc(-c2cc3ccc(OCc4nn[nH]n4)cc3oc2=O)cc1,-9%
COc1cccc(CNC(=O)CCS(=O)(=O)c2cccc3nsnc23)c1,0%
O=C(COn1nnc2ccccc21)NCC1CCCCC1,2%
O=C(CN1C(=O)C2C3C=CC(C3)C2C1=O)Nc1ccc2nccnc2c1 (stereo not drawn),4µM*[single pt active]
NC(=O)c1cccc([N+](=O)[O-])c1,5%
COc1ccc(CC(=O)Nc2cc(C)ccn2)cc1,-12%
CC1(C)CC(=O)C2=C(C1)Oc1ncn3nc(-c4cccnc4)nc3c1C2c1ccccc1 (stereo not drawn),81%
CCS(=O)(=O)N1CCC(C(=O)NCCc2ccccc2)CC1,0%
O=C(NCCN1CCCC1)C1CC(=O)N(C2CCCCC2)C1 (stereo not drawn),-5%
CCOC(=O)C1CCN(C(=O)c2cc3cc4cc(OC)ccc4nc3o2)CC1,113%
CCOC(=O)N1CCN(C(=O)c2ccc(Cl)c(S(=O)(=O)Nc3ccccc3)c2)CC1,8%
CCCc1nnc(SCC(=O)N2CCCC(C)C2)n1CCCOC (stereo not drawn),0%
COc1ccccc1-n1c(SCC(=O)N(C)C2CCS(=O)(=O)C2)nc2ccccc2c1=O (stereo not drawn),46%
CCc1ccccc1OCc1nnc(N)s1,-6%
Cc1ccc(CC(=O)NCC(C)C)cc1,17%
CC(C)c1ccccc1OCCCCCNCCO,57%
O=C(C1CCN(c2ccc(N3CCOCC3)nn2)CC1)N1CCN(c2ccc(F)cc2)CC1,74%
CCOC(=O)c1c(C)oc2c1c(C=NC1CCS(=O)(=O)C1)c(O)c1ccccc12 (stereo not drawn),18%
CCCn1nnc(NC(=O)c2sc3ccccc3c2Cl)n1,-2%
CCC1(C(=O)OC)NC(c2cccc(F)c2)C2C(=O)N(C)C(=O)C21 (stereo not drawn),5%
COC(=O)c1ccc(NC(=O)C2C3C=CC(O3)C2C(=O)O)cc1 (stereo not drawn),-5%
Cc1cc(N2C(=O)CCC2=O)n(-c2ccccc2)n1,-5%
CN(C)S(=O)(=O)N1CCN(S(=O)(=O)c2ccccc2)CC1,-7%
O=P(C(c1c[nH]c2ccccc12)N1CCOCC1)(N1CCOCC1)N1CCOCC1 (stereo not drawn),10%
COc1cccc(Nc2ncc3nc(C)c(=O)n(-c4ccccc4)c3n2)c1,111%
Cc1cccc(NC(=O)CCCCCN2C(=O)c3ccccc3C2=O)n1,9%
Cc1nc2c(ccc3nc(NC(=O)c4ccc(S(=O)(=O)N(C)C)cc4)sc32)s1,32%
CC(=O)c1sc(NC(=O)C=C(C)C)nc1C,12%
O=C(CCC(=O)OCC(F)(F)C(F)F)NCc1ccccc1,7%
CCCCOC(=O)CSc1nnc(-c2cc(OC)c(OC)c(OC)c2)o1,76%
CCOC(=O)c1c(NC(=O)c2ccc(Br)o2)sc(C)c1CC,8%
O=C(NCCCN1CCOCC1)c1c(F)cccc1F,2%
O=S(=O)(Nc1nc2ccccc2nc1NCc1ccco1)c1ccccc1,108%
Cc1cc(OCC(=O)NCCN2CCOCC2)ccc1Br,27%
C[C@@](Cc1ccc(O)c(O)c1)(NN)C(=O)O,4%
CCOC(=O)C1C(=O)CC(C)(O)C(C(=O)OCC)C1c1ccc(C)s1 (stereo not drawn),1%
CS(=O)(=O)N(CCc1ccccc1)CC(=O)N1CCN(c2ccccc2)CC1,73%
Cc1ccc(O)c(-c2cc(C(=O)NCc3ccncc3)[nH]n2)c1,-10%
COc1cc(OC)c(C(=O)Nc2ccc(N(C)C)cc2)cc1OC,54%
CSc1ccc(Cl)c(C(=O)OCC(=O)N2CC(C)OC(C)C2)c1 (stereo not drawn),42%
CCn1c(C)nc2cc(-c3nc4n(n3)Cc3ccccc3-4)ccc21,138%
C/C(N)=C(/C#N)C(=O)CSc1nnc(Nc2c(C)cccc2C)s1,-12%
CCCS(=O)(=O)n1nc(-c2ccc(OC)cc2OC)cc1N,1%
CCN(CC)S(=O)(=O)c1cc(C(=O)Oc2ccccc2OC)ccc1OC,78%
CCOC(=O)c1ccc(NC(=O)CSc2n[nH]c(-c3ccncc3)n2)cc1,-4%
COc1ccc(NC(=O)C2C(=O)NC3(C)CC2c2ccccc2O3)cc1 (stereo not drawn),-19%
O=C(CCCc1nc2ccccc2s1)N1CCN(S(=O)(=O)c2cccs2)CC1,64%
COCC(C)NC(=O)c1cc(-c2cccc(OC)c2)on1 (stereo not drawn),23%
COc1cc(C2C(=O)N(C3CCCC3)CC(=O)N2Cc2ccco2)ccc1OC(C)C (stereo not drawn),67%
COc1ccc(NC2CCN(C3CC(=O)N(c4ccc(F)c(Cl)c4)C3=O)CC2)cc1 (stereo not drawn),97%
O=c1c(-c2cccs2)nc2cncnc2n1Cc1ccc(F)cc1,3%
CCOC(=O)NC(Nc1nnc(SCC)s1)(C(F)(F)F)C(F)(F)F,-6%
CC1CCN(c2nncc3ccccc23)CC1,2%
Cc1cc(NC(=O)CSc2nnc(-c3ccco3)n2Cc2ccco2)no1,3%

# Quoted from the results shown, 6 compounds:
structure,AmpC inh no det
COc1cc(C2C(=O)N(C3CCCC3)CC(=O)N2Cc2ccco2)ccc1OC(C)C (stereo not drawn),67%
COc1ccc(NC2CCN(C3CC(=O)N(c4ccc(F)c(Cl)c4)C3=O)CC2)cc1 (stereo not drawn),97%
O=c1c(-c2cccs2)nc2cncnc2n1Cc1ccc(F)cc1,3%
CCOC(=O)NC(Nc1nnc(SCC)s1)(C(F)(F)F)C(F)(F)F,-6%
CC1CCN(c2nncc3ccccc23)CC1,2%
Cc1cc(NC(=O)CSc2nnc(-c3ccco3)n2Cc2ccco2)no1,3%

# A portion of the library (hit frequency here may not be typical).
